HIV TAR-Tat – HIV-1 TAR-Tat binding disruption | HIV-1 TAR RNA, Tat peptide displacement FRET; hits give high values | z-score (concentration not given with the values) | hit rate 0.6% among 100,000 | AID 1259389;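 also: score is relative to mean and SD of negative controls; some compounds called inactive have numbers as strong as hits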
CDC25B-CDK2 inh – human CDC25B-CDK2/CyclinA binding inhibition; hit rate 0.72% among 94,000; P30305+P24941; z-score (test concentration not listed); HTRF CDC25B-CDK2/CyclinA binding, anti-His/anti-Flag; hits give high values;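 also: score is relative to mean and SD of negative controls; strong numbers were not always called active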
* marks the source's active call; other numbers are inactive results; nt = no result given.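 The calls were made as follows: active = z-score from 3 up in half or more of its runs; inactive = the rest.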

SMILES,HIV TAR-Tat,CDC25B-CDK2 inh
CC(C)n1c(SCCC(=O)O)nc2ccccc21,1.6,-1.3
O=C(C1CCCN(S(=O)(=O)N2CCCCC2)C1)N1CCN(c2ccccc2)CC1 (stereo not drawn),15*,nt
O=C(NCCN1CCOCC1)c1cccn1-c1nnc(N2CCCC2)s1,-0.35,nt
Cc1nn2cc(C#N)c(-c3ccccc3)nc2c1-c1ccccc1,-0.13,-0.04
CC1=C(C(=O)OCc2ccc(C)cc2)C(c2ccccc2)NC(=O)N1 (stereo not drawn),nt,0.41
CCCN1C(=O)C(O)(CC(=O)c2ccc(CC)cc2)c2ccccc21 (stereo not drawn),0.81,1.2
CSc1ncc(C(=O)N2CCN(c3ccccn3)CC2)c(-c2ccccc2)n1,1,nt
CCCCc1ccc2nc(NC(=O)Cc3csc(C)n3)sc2c1,0.52,0.4
Cn1c(-n2cccc2)c(-c2c(-c3ccccc3)[nH]c3c2c(=O)n(C)c(=O)n3C)c(=O)n(C)c1=O,0.74,-1.6
CN(C)CCn1c2c(c(SCC(=O)Nc3ccc(F)cc3F)nc1=O)CCC2,0.37,nt
Cc1c(-c2nc(-c3ccccc3)no2)nnn1-c1ccc(F)c(Cl)c1,1.4,nt
Cc1ccc(NC(=O)Nc2nnc(-c3ccccc3I)s2)cc1,nt,-3.2
CCOC(=O)c1cnc(SCc2ccccn2)nc1N,1.2,nt
CCN1CCN(CCCNc2ncnc3onc(-c4ccc(F)cc4)c23)CC1,0.28,nt
Cc1ccc(NC(=O)CCNC(=O)Cn2ccc3ccccc3c2=O)nc1,nt,1.3
COCc1cc(=O)n2[nH]c(-c3ccccc3)cc2n1,nt,-1.7
CCc1cc2c3c([nH]c2cc1S(=O)(=O)NC(C)(C)C)CCCC3=O,0.28,nt
Cc1cc(C)n(CCc2nc(-c3ccc(Cl)cc3)no2)n1,-0.05,-1.3
CCOc1ccc(C2c3c(oc4ccc(F)cc4c3=O)C(=O)N2Cc2ccco2)cc1 (stereo not drawn),0.86,-1.7
COC(=O)c1sc2ccccc2c1S(=O)(=O)Nc1cccc(F)c1,0.65,nt
Cc1nc(N2C(=O)c3oc4ccc(F)cc4c(=O)c3C2c2ccc(F)cc2)sc1C (stereo not drawn),0.12,1.1
CCOC(=O)c1c(C)oc(NC(C)=O)c1C#N,0.81,-0.7
COc1cc(/C=N/Nc2nnc3c(n2)[nH]c2ccccc23)cc(OC)c1O,nt,-2.7
O=C1CCSc2ccc(S(=O)(=O)Nc3cccc(Br)c3)cc2N1,3.2,nt
CCc1cc2c3c([nH]c2cc1S(=O)(=O)NCc1ccc2c(c1)OCO2)CCCC3=O,-0.09,nt

Retrieved one by one from the list above:
SMILES,HIV TAR-Tat,CDC25B-CDK2 inh
COC(=O)c1sc2ccccc2c1S(=O)(=O)Nc1cccc(F)c1,0.65,nt
CC(C)n1c(SCCC(=O)O)nc2ccccc21,1.6,-1.3
Cc1c(-c2nc(-c3ccccc3)no2)nnn1-c1ccc(F)c(Cl)c1,1.4,nt

(listing goes on)
SMILES,HIV TAR-Tat,CDC25B-CDK2 inh
CC(C)NC(=O)Cn1nc(C(F)(F)F)c2c1CCCC2,1.9,1.6
COc1ccc(NC2=NC3(CCCCC3)N=C(N)N2)cc1,nt,-0.35
O=C(Nc1nc(-c2ccccn2)cs1)C1=COCCO1,0.27,nt
O=C(C1CC2CCCN2C12C(=O)Nc1ccccc12)N1CCN(c2ccccc2F)CC1 (stereo not drawn),-0.59,nt
CCOC(=O)c1c2nc3ccccc3nc2n2c1[nH]c(=O)c1c(C)c(C)sc12,nt,-1
CC1CCCN(c2nn3c(=O)c(C(=O)NCCc4cccs4)cnc3s2)C1 (stereo not drawn),-0.15,nt
O=C(O)c1cc(-c2ccccc2)nc2n[nH]c(-c3ccccc3)c12,0.44,nt
CCN(CC)CCC(O)(c1ccccc1)C1CCCCC1 (stereo not drawn),1.3,0.26
CCNC(=O)c1c(NC(=O)c2cc(=O)c3c(C)cc(C)cc3o2)sc2c1CCCC2,-0.2,-0.77
Cc1ccc(N(C)S(=O)(=O)c2ccc(-c3ccc(=O)[nH]n3)o2)cc1,-2.3,nt
CC1CC(C)(C)NC(=S)N1CCC(=O)Nc1nc2ccccc2s1 (stereo not drawn),nt,0.31
Cc1cc(C)c(NC(=O)CCS(=O)(=O)c2ccc3c(c2)NC(=O)C(C)S3)c(C)c1 (stereo not drawn),1.9,nt
Cn1c(C(=O)NCc2ccccc2Br)cc2oc3ccccc3c21,-0.04,10*
CCn1c2ccccc2c2nnc(NCCc3cc(OC)ccc3OC)nc21,1.6,0.45
COc1ccccc1Nc1cc(=O)[nH]c(=O)[nH]1,0.5,-1.6
CCn1cc(C2CC(=O)Nc3c2c(C)nn3-c2nc3ccccc3[nH]2)cn1 (stereo not drawn),1.6,nt
CCOC(=O)c1csc2c1CCCC2=O,0.37,0.22
Cc1cccn2c(=O)c3cc(C(=O)NCc4ccc5c(c4)OCO5)sc3nc12,nt,0.38
Cn1c(=O)[nH]c(=O)c2c1nc(N1CCOCC1)n2CC(O)COc1ccc(Cl)cc1 (stereo not drawn),nt,-1.9
O=C1c2cccnc2C(=O)N1Cc1ccc(F)cc1S(=O)(=O)Nc1ccc(Cl)cn1,0.15,nt
O=C(NCc1ccccn1)c1cc(-c2ccccc2)nc2ccccc12,-0.84,nt
Cc1ccc(-n2nnc(-c3nc(-c4ccc5c(c4)OCO5)no3)c2C)cc1Cl,1.8,nt
CN(C)S(=O)(=O)N(CC(=O)NC1CC1)c1ccccc1,0.92,-0.84
c1csc(-c2csc(-c3nc(-c4ccc5c(c4)OCO5)cs3)n2)c1,-0.08,nt
COc1ccc(C2=C(C)C(Nc3ccc(C)cc3C)=NS2(=O)=O)cc1,1,-1.9

Next part:
SMILES,HIV TAR-Tat,CDC25B-CDK2 inh
O=C(COc1ccc(F)cc1)OCc1cc(=O)n2c(-c3ccccc3)csc2n1,0.81,nt
CCCOc1cccc(-c2nnc(N)s2)c1,0.49,-1.9
CCCNC(=O)CCCn1cnc2cc(S(=O)(=O)N(C)C)ccc21,-0.24,nt
Cc1nnc(NC(=O)CS(=O)(=O)c2c[nH]c3ccccc23)s1,nt,1.1
Cn1c(=O)[nH]c(=O)c2c1nc(N1CCC(C(N)=O)CC1)n2CCSc1nc2ccccc2o1,nt,1.9
COc1ccc(-c2nc(CSc3nnc(C)n4c3cc3sccc34)c(C)o2)cc1,2.8,nt
O=C(Cn1c(=O)sc2ccccc21)Nc1nnc(SCc2ccccc2)s1,1.5,-1.4
CCOC(=O)c1[nH]c2sc3c(c2c1NC(C)=O)CCCC3,1.4,-1.3
Cc1nn(S(=O)(=O)c2ccc(C(C)(C)C)cc2)c(C)c1S(=O)(=O)N1CCCCC1,0.65,nt
Cc1ccc(OS(=O)(=O)c2ccc(-c3csc(C)n3)s2)c(C)c1,nt,-1.9
CN(C(=O)CN(CCO)CC(=O)N(C)C(C)(C)Cc1ccccc1)C(C)(C)Cc1ccccc1,-0.47,nt
CC1CCN(CCCNC(=O)c2cccn3c(=O)c4c5c(sc4nc23)CCCC5)CC1,5.4,nt
CCC(C)NC(=O)C1=Cc2sc3c(c2CS1)CCC(C)C3 (stereo not drawn),-2.7,nt
COc1ccc(C2c3c(oc4ccc(C)cc4c3=O)C(=O)N2Cc2ccc3c(c2)OCO3)cc1 (stereo not drawn),3.6,-0.41
O=C(Nc1ccc2oc(-c3cccc4ccccc34)nc2c1)c1cccc(-n2cnnc2)n1,0.09,nt
CCOc1cc(-c2ccc(OC(=O)c3ccncc3)c(OC)c2)cc(=O)c2c(C)oc(C)c12,-1.4,-1.2
Cc1c(C(=O)Nc2ccccc2Cl)oc2ccc3c(c12)C(=O)CC(C)(C)O3,4.8,nt
CNC(=O)c1c(NC(=O)c2coc3ccccc3c2=O)sc2c1CCC2,0.19,nt
COCCCNC(=O)CN(C)c1nnc(N2CCCC2=O)s1,0.89,0.63
CCOc1ccc(C2=NN(C(C)=O)C(c3ccc([N+](=O)[O-])o3)O2)cc1 (stereo not drawn),1.3,nt
O=C(Nc1cc(S(=O)(=O)c2ccccc2)cs1)c1ccc(Cl)cc1,nt,0.26
Cc1cccc(-c2nc3c4c(C)c(C)n(CCO)c4ncn3n2)c1,1.4,-1.4
Cc1ccc(S(=O)(=O)OCC(C)(C)C)cc1,nt,-1.6
CC(CC(=O)Nc1cccc2c1CCCC2)S(=O)(=O)c1ccc2c(c1)CCN2C(=O)C1CC1 (stereo not drawn),-0.91,nt
Cc1ccc2c(c1)Cc1c(nc(-c3ccc(Cl)cc3)[nH]c1=O)O2,1.7,-1

Other records
SMILES,HIV TAR-Tat,CDC25B-CDK2 inh
O=S(=O)(NCC(c1ccco1)N1CCN(c2ccccc2)CC1)c1cccs1 (stereo not drawn),1.7,nt
O=C1CC(c2ccc(OCc3ccccc3)cc2)c2cnn(-c3nc4ccccc4s3)c2N1 (stereo not drawn),2.7,nt
Fc1ccccc1-c1nn2c(Cn3cnc4ccccc43)nnc2s1,1.2,0.47
Cc1ccccc1C(=O)Nc1nc(SCc2ccc(Cl)cc2)n[nH]1,nt,-1.7
N#Cc1cc([N+](=O)[O-])ccc1-n1cccc1,nt,0.83
O=C1Nc2ccccc2S(=O)(=O)N1Cc1cccc(F)c1,0.28,nt
CCN1CCN(c2cc(Nc3ccc4c(c3)OCCO4)c3c4c(onc24)-c2ccccc2C3=O)CC1,-0.69,1.1
O=C(Nc1cccnc1Oc1ncnc2cc(Cl)ccc12)c1ccc(F)cc1,nt,-0.83
Cc1ccsc1CCNC(=O)C1CCCN1c1nnc(N2CCCC2=O)s1 (stereo not drawn),0.71,nt
O=C1CSc2ccc(S(=O)(=O)N3CCCC3)cc2N1Cc1ccccc1,1.2,nt
Cc1ccc2c(C(=O)CNc3nncs3)c(C)[nH]c2c1,nt,-1.3
CCOC(=O)C(=CN(C1=NCC(C)S1)c1ccc(F)c(Cl)c1)C(=O)OCC (stereo not drawn),nt,-1.5
CCOC(=O)C(C)Sc1nnc(Cn2c(=O)sc3ccccc32)n1-c1ccccc1 (stereo not drawn),nt,-1.3
C=CCc1ccccc1OCCSc1nc(-c2ccco2)nc2cc(=O)[nH]n12,12,nt
Cc1ccc(C(=O)N2CCN(c3ncccc3C(F)(F)F)CC2)cc1,nt,-1.1
CCCCCSc1nnc2c(n1)OC(c1cccnc1)Nc1ccccc1-2 (stereo not drawn),0.25,-1.8
CCCn1nc(NS(=O)(=O)c2ccccc2)c2cc3cc(C)ccc3nc21,2.8,0.21
CC(C)N1C=C(OC(=O)c2ccco2)c2ccccc2S1(=O)=O,0.02,-0.03
CN(CCc1ccccn1)Cc1ccc(Cl)cc1,1.4,1.3
Cc1cc2ccccc2n2c(SCC(=O)NCC3CCCO3)nnc12 (stereo not drawn),nt,-0.38
Cc1cc(-c2ccc(C)c(S(=O)(=O)N(Cc3cccs3)C3CCCC3)c2)on1,1.6,nt
COc1cc2c(cc1OC)C(=O)OC2,2.6,nt
O=C(c1cnn2c1NC(c1ccc(F)cc1)CC2C(F)(F)F)N1CCCCC1 (stereo not drawn),1.2,0.04
CCOC(=O)Cn1c(=O)n(C2CCCC2)c(=O)c2ccccc21,nt,-0.49
O=S(=O)(NCCCc1nc2ccccc2[nH]1)c1ccc(Cl)cc1,-2,-1.5

Full records from above.
CCCOc1cccc(-c2nnc(N)s2)c1 is listed with HIV TAR-Tat: 0.49; CDC25B-CDK2 inh: -1.9
CCOC(=O)C(C)Sc1nnc(Cn2c(=O)sc3ccccc32)n1-c1ccccc1 (stereo not drawn) is listed with HIV TAR-Tat: nt; CDC25B-CDK2 inh: -1.3

The listing continues.
SMILES,HIV TAR-Tat,CDC25B-CDK2 inh
Cc1ccc(C)c(N2C(=O)N(C)C3CS(=O)(=O)CC32)c1 (stereo not drawn),0.54,nt
Cc1c(O)c(=O)ccn1C,0.78,nt
c1cc(Nc2ccncc2)ccn1,nt,-0.97
CC1=C(c2ccc(C)c(C)c2)S(=O)(=O)N=C1N1CCc2ccccc2C1,0.2,-3.9
N=c1ccn2c(n1)OC1[C@@H](O)[C@@H](CO)O[C@H]12 (stereo partly drawn),nt,-0.84
Cc1nonc1N=P(c1ccccc1)(c1ccccc1)c1ccccc1,nt,-0.67
Cc1ccc(S(=O)(=O)N2CCN(c3cc(-c4ccccc4)ncn3)CC2)cc1C,1.1,nt
Cc1ccc(CNc2nc3ccccc3n3nnnc23)cc1,-1.1,-1.7
CC(C)c1ccc(-c2c(NCc3ccco3)c(=O)c2=O)cc1,2.1,nt
O=C(Nc1ccc(N2CCOCC2)cc1)c1cn(-c2ccc(F)cc2)nn1,0.03,-2.3
c1ccc2c(c1)c(NCc1ccncc1)nn1nnnc21,-1.6,nt
O=c1ccc(N2CCCN(S(=O)(=O)c3cccc4nsnc34)CC2)nn1-c1ccccc1,0.83,nt
Cc1cc(C)n2nc(NC(=O)C3CC3)nc2n1,1.2,-1
CCOC(=O)c1c(C)n(C)c2cc(CN(C)C)c(O)c(S(=O)(=O)c3ccccc3)c12,0.53,-0.43
O=C1CCCc2cc(S(=O)(=O)N3CCC(C(=O)N4CCCCC4)CC3)ccc2N1,1.6,nt
CCN(CC)CCCNc1ncnc2c1sc1nc3c(cc12)COC(C)(C)C3,-0.39,nt
Cc1c(C(=O)NC2CCCCC2)oc2ccc3c(c12)C(=O)CC1(CCCC1)O3,1.3,-0.93

Assay outcomes as filed in PubChem.
